# Source: PubChem (National Center for Advancing Translational Sciences (NCATS))
# VACV Venus inh – qHTS for Stage-Specific Inhibitors of Vaccinia Orthopoxvirus: Venus Reporter Primary qHTS. AID 720580, 2013. Potency, µM (titrated, usually from 36.5 µM), for the others: at the top dose activity change, negative = inhibition, actives largely listed as inhibitors. 0.46% of 330,000 active. Vaccinia virus Venus reporter expression, fluorescence; active means well fitted inhibition curve with a large enough effect; inconclusive means small, poorly fitted or top-dose-only effect; inactive means no such curve, though single readings can be large or run the other way; tested in A549 cells; further: nearly all actives have a fitted effect of over 30% in size; inactives centre near -10
# VACV mCherry inh – qHTS for Stage-Specific Inhibitors of Vaccinia Orthopoxvirus: mCherry Reporter Primary qHTS; Vaccinia virus mCherry reporter infection, fluorescence; about a quarter of the inactives have no number; Potency, µM (series often up to 36.5 µM), without a hit: top-dose activity change, negative = inhibition, actives largely listed as inhibitors; 0.63% of 310,000 active; AID 720579, 2013; active = well fitted inhibition curve with a large enough effect; inconclusive = small, poorly fitted or top-dose-only effect; inactive = no such curve, though single readings can be large or run the other way; tested in A549 cells; further: nearly all actives have a fitted effect of over 35% in size; inactives centre near -10
# An asterisk follows results filed as active; i = inactive; ? = inconclusive; . = not tested or not shown; [ ] = dose if it differs, or a comment. On the % scale 0 is the no-effect control and ±100 the full control effect; potency means the concentration at half of the fitted maximal effect.
# Every second line gives: VACV Venus inh	VACV mCherry inh
> O=C(NCc1ccccc1)C(c1ccncc1)N(C(=O)c1csnn1)c1ccccc1F (centres undefined)
  -10.8%	3.2%
> O=C(COC(=O)Cc1c(F)cccc1Cl)NC1CCS(=O)(=O)C1 (centres undefined)
  -10.7%	i
> CC(=O)N1CCCc2cc(S(=O)(=O)N3CCCC(C(=O)N4CCN(c5ccccc5F)CC4)C3)ccc21 (centres undefined)
  -28.6%	?
> COc1ccc(CNc2nc(NC(C)=O)nn2-c2ccccc2)cc1
  -4.4%	-12.7%
> CC(C)OC(=O)c1ccc(COC(=O)c2cccc(-c3nnc(-c4ccccc4)o3)c2)cc1
  -18.1%	-15.1%
> NC(=O)CC(NC(=O)Cc1cccc2ccccc12)c1ccc(N2CCCCCC2)c([N+](=O)[O-])c1 (centres undefined)
  -21.3%	-14.3%
> COc1cc(NC(=S)Nc2cccc(C)n2)cc(OC)c1OC
  -19.0%	?
> O=C(NCc1ccccc1)C1Cc2c(-c3ccc(Cl)cc3)ccnc2O1 (centres undefined)
  ?	?
> CCOc1cc(OCC)cc(C(=O)N2CCC[C@H]2C(=O)N2CCC[C@H]2C(=O)NCc2ccccn2)c1
  8.6%	4.6%
> COc1ccc(N2CCN(C(=O)c3oc4ccccc4c3NC(=O)CCc3cc(OC)no3)CC2)cc1
  -14.1%	?
> Cc1ccc(CNC(=O)C2(C)CCN2C(=O)Cc2ccc(-c3ccccc3)cc2)cc1 (centres undefined)
  -13.3%	12.1%
> O=C(Cn1ncc2c(=O)oc3ccccc3c21)NC1CC1
  -11.5%	-12.4%
> NC(=O)c1cccnc1Nc1ccccc1F
  -7.5%	-16.2%
> COc1ccc(/C=C(/NC(=O)c2ccco2)C(=O)NCc2ccco2)cc1
  -13.9%	i
> Oc1c(Br)cc(Br)cc1CNc1ccc(F)cc1
  -16.4%	?
> CCCc1nn(C)c2c(=O)[nH]c(-c3ccccc3OCC)nc12
  -15.0%	i
> CCOc1ccccc1NC(=O)Cc1ccccc1OC
  -14.9%	-3.8%
> CCN(CC(=O)Nc1cccc(S(N)(=O)=O)c1)Cc1nc2ccccc2c(=O)[nH]1
  -1.9%	-7.5%
> COc1ccccc1CNC(=O)CCC1N=C2c3ccccc3N=C(SCc3ccc(C)cc3)N2C1=O (centres undefined)
  ?	?
> CCCCNC(=O)C1CCCN(S(=O)(=O)c2ccc(S(=O)(=O)NCC(C)C)cc2)C1 (centres undefined)
  -9.2%	-11.2%
> O=S(=O)(NCc1ccc(Cl)cc1)c1ccc(N2CCCCS2(=O)=O)cc1
  -14.4%	-20.5%
> Cc1cc(OCC(=O)Nc2c(C(=O)c3ccccc3)oc3ccccc23)cc(C)c1Cl
  2.8%	-0.2%
> CC(=O)c1c(C)[nH]c(C(=O)Nc2cccc(C)c2C)c1C
  9.5%	74.4%[activator]
> NC(=O)C1CCCN(CC(=O)Nc2ccccc2C(=O)NC2CC2)C1 (centres undefined)
  -2.8%	-13.2%
> COc1ccc(/C(C)=N/NS(=O)(=O)c2ccccc2)c(OC)c1
  -7.6%	i
> Cc1cc(NC(=O)C(C)Oc2ccccc2)no1 (centres undefined)
  -12.1%	-4.7%
> COc1cc(NC(=O)C(CC(C)C)NS(=O)(=O)c2ccc3c(c2)oc(=O)n3C)c(C(=O)O)cc1OC (centres undefined)
  0.1%	-15.6%
> O=C(NNC(=O)c1ccc2c(c1)OCO2)NC12CC3CC(CC(C3)C1)C2
  -7.9%	-13.3%
> CN1CCC(=O)N([C@H](CC#N)c2ccccc2)CC1
  -15.6%	i
> Cc1nc2cc(-c3ccsc3-n3c(C)ccc3C)[nH]n2c(=O)c1Cl
  5.8%	-10.8%

# Structures above that have two or more sulfur atoms (2):
# Every second line gives: VACV Venus inh	VACV mCherry inh
> CCCCNC(=O)C1CCCN(S(=O)(=O)c2ccc(S(=O)(=O)NCC(C)C)cc2)C1 (centres undefined)
  -9.2%	-11.2%
> O=S(=O)(NCc1ccc(Cl)cc1)c1ccc(N2CCCCS2(=O)=O)cc1
  -14.4%	-20.5%

# Looked up by compound from above (4):
# Every second line gives: VACV Venus inh	VACV mCherry inh
> COc1ccc(CNc2nc(NC(C)=O)nn2-c2ccccc2)cc1
  -4.4%	-12.7%
> COc1ccccc1CNC(=O)CCC1N=C2c3ccccc3N=C(SCc3ccc(C)cc3)N2C1=O (centres undefined)
  ?	?
> COc1ccc(/C(C)=N/NS(=O)(=O)c2ccccc2)c(OC)c1
  -7.6%	i
> NC(=O)CC(NC(=O)Cc1cccc2ccccc12)c1ccc(N2CCCCCC2)c([N+](=O)[O-])c1 (centres undefined)
  -21.3%	-14.3%

# The listing continues:
# Every second line gives: VACV Venus inh	VACV mCherry inh
> Cc1cccc(Nc2nc(N)nc(CSc3nccc(C)n3)n2)c1
  -17.2%	-20.5%
> CCCC(=O)N1CCCC(c2cc(C(=O)NCc3ccccc3)no2)C1 (centres undefined)
  -4.0%	-1.5%
> Cc1ccc(CN2CCN(/N=C/c3ccc(Cl)c([N+](=O)[O-])c3)CC2)cc1
  6.0%	-6.5%
> Cc1cccc(C)c1NC(=O)/C(=C/c1ccco1)c1ccccc1
  -22.3%	.
> NC(=O)CC(NC(=O)Cc1ccc(Br)cc1)c1ccc(NCc2cc(F)ccc2F)c([N+](=O)[O-])c1 (centres undefined)
  -29.5%	-14.2%
> COc1cc(NC(=S)NC(=O)c2c(OC)cccc2OC)ccc1NC(=O)c1cccs1
  ?	?
> Cc1cc(NC(=O)CCC(=O)N(Cc2cccnc2)C(C(=O)NC(C)(C)C)c2ccccc2Cl)no1 (centres undefined)
  -10.9%	-7.2%
> CN(Cc1cccc(-c2ccncc2)c1)C(=O)Oc1ccccc1Cl
  -11.7%	i
> CCN(CC(=O)Nc1ccccc1OC)C(=O)COc1ccc(C#N)cc1
  -12.9%	-11.7%
> COc1ccc(-c2ccc(/C=C3\C(=O)N(c4ccccc4)N=C3c3ccccc3)o2)c([N+](=O)[O-])c1
  -4.0%	-13.2%
> COC(=O)c1oc(-c2ccc(Cl)cc2)nc1C
  2.3%	-0.7%
> O=C(c1ccc(COc2ccccc2Br)o1)N1CCCCCC1
  -11.6%	-10.3%
> Cc1ccc(NC(=O)C2(C)CCN2Cc2ccccc2OC(F)F)cc1 (centres undefined)
  -8.7%	-12.7%
> CC1CCCCC1N=C1NC(C)(C)CS1 (centres undefined)
  -4.7%	-2.8%
> O=C(NC1CCCCC1)c1cc(-c2ccc(O)cc2)on1
  -14.3%	?
> O=C(CNc1ccc(Cl)cc1)NNC(=S)NCc1ccccc1
  -23.3%	-17.0%
> CSc1ncccc1C(=O)N1CCCC(CCC(=O)NCc2ccc(F)c(F)c2)C1 (centres undefined)
  -2.3%	-14.5%
> Cc1ccc2oc(C(=O)N(Cc3sccc3C)C3CCS(=O)(=O)C3)c(C)c2c1 (centres undefined)
  -16.5%	i
> CCC(=O)N1CCc2cc(Br)cc(S(=O)(=O)N3CCN(C(=O)c4ccco4)CC3)c21
  -21.0%	-28.9%
> O=C(NCC(=O)N1CCN(c2ccccc2)CC1)c1ccc(Br)o1
  -20.4%	-10.2%
> CNC(=O)CN1C(=O)NC(c2ccccc2)(c2ccccc2)C1=O
  -18.6%	i
> Cc1ccc2c(c1)N(C(=O)N1CCC(C(=O)NCc3ccccc3C)CC1)CC(C)O2 (centres undefined)
  -9.5%	-13.7%
> Cc1ccc(C)c(NC(=O)CN(C)C(=O)c2ccccc2OCc2ccc(Cl)cc2)c1
  -16.9%	-24.6%
> CC(NCCC(Cc1ccccc1)c1ccco1)c1ccccc1 (centres undefined)
  -9.1%	-25.0%
> CC/C(=N\Nc1cccc2ccccc12)c1c(O)[nH]c(=O)[nH]c1=O
  -3.1%	-27.6%
> Cc1nn(-c2ccccc2)c(C)c1/C=N/NC(=O)c1cccs1
  ?	i
> O=C1CC(Nc2ccc(N3CCOCC3)cc2)C(=O)N1CCc1ccccc1 (centres undefined)
  -20.8%	-0.4%
> Cc1ccc(CN2CC(=O)N3[C@H]4c5cc(C)ccc5OC[C@@H]4[C@H](c4ccccc4)[C@]3(C)C2=O)cc1
  -18.4%	-3.2%
> COc1ccc(C(C(=O)NC2CCCC2)N(C(=O)c2ccco2)c2cccc(C(C)=O)c2)cc1OC (centres undefined)
  -15.1%	-12.7%
> NC1(C(=O)O)CCCC1
  -5.0%	-4.6%

# Next part
SMILES	VACV Venus inh	VACV mCherry inh
Cc1cc(C)n(CC(=O)N2c3ccccc3Sc3ccc(C(F)(F)F)cc32)n1	-8.9%	?
CC1CCN(S(=O)(=O)c2ccc3c(c2)N(CC(=O)Nc2ccc(F)c(Cl)c2)C(=O)CO3)CC1	-11.4%	-13.2%
O=C(Cn1c(=O)c(=O)n(Cc2ccccc2)c2ccc(Cl)cc21)Nc1ccc(F)cc1F	3.4%	i
Cc1ccccc1Nc1sc(C(=O)c2ccccc2)c(N)c1S(C)(=O)=O	-7.5%	-6.1%
Cc1cccnc1CCNC(=O)CCc1nnc(-c2ccccc2)o1	-7.2%	i
O=C(COc1ccc2ccccc2c1)NCCc1ccc2c(c1)OCCO2	-9.3%	i
Cc1ccc(C)c(OC(=O)c2cccnc2Cl)c1C	2.5%	-20.8%
CC(/C=C1\SC(=S)N(NC(=O)c2ccccc2C)C1=O)=C\c1ccccc1	-10.0%	i
Cc1ccccc1OCC(=O)OCC(=O)NCC1CCCO1 (centres undefined)	-8.4%	i
CN1CCN(NC(=O)c2c(-c3ccccc3)sc3ccccc23)CC1	-19.4%	-2.3%
CCNc1nc(NCC)nc(N2CC(=O)N(CC(=O)OCC)C2=N)n1	?	.
COc1cccc(CN2CCN(C3CCOCC3)CC2CCO)c1 (centres undefined)	-15.4%	-13.7%
O=C(COC(=O)c1ccco1)Nc1ccccc1[N+](=O)[O-]	2.5%	-0.8%
CC(=O)C1CCCN(C(=O)c2ccc3oc(CCc4ccccc4)nc3c2)C1 (centres undefined)	5.9%[7.34 µM]	-6.2%[7.34 µM]
COCCn1cnc2c1c(=O)n(CC(=O)OCC(=O)NCC(F)(F)F)c(=O)n2Cc1ccccc1	-10.9%	-13.1%
Nc1nc(N)nc(-c2ccc(Cl)cc2)n1	-10.4%	-14.2%
CCOc1cc(N2CCOCC2)c(OCC)cc1NC(=O)c1cc(S(=O)(=O)N2CCOCC2)ccc1Cl	-25.7%	-11.7%
COC(=O)c1c(SCc2cccc3ccccc23)nc(=O)[nH]c1C	4.7%	-29.9%
COc1ccc(/C=N/n2c(=O)[nH]c3c([nH]c4ccc(Br)cc43)c2=O)cc1CN1CCOCC1	-18.7%	-20.0%
CS(=O)(=O)c1nc(-c2ccc(F)cc2)cc(C(F)(F)F)n1	?	?
NC(=O)c1ccccc1NC(=O)CCn1c(=S)oc2ccccc21	-20.1%	i
C=CCn1c(=NC(=O)C2CC2)sc2cc(NC(C)=O)ccc21	-1.4%	-27.2%
COc1ccccc1CNC(=O)C[C@@H]1C[C@H]2c3cc(NC(=O)c4ccc5c(c4)OCO5)ccc3O[C@H]2[C@@H](CO)O1	-18.5%	i
O=C(NCc1ccccc1Cl)C(=O)NCC1OCCN1S(=O)(=O)c1cccs1 (centres undefined)	5.4%	i
COc1ccc(Br)cc1CN(C)CC(=O)Nc1cc(Cl)ccc1Cl	-9.2%	-14.9%
O=c1ccn(Cc2ccccc2)c(=O)n1Cc1ccccc1	-19.5%	-3.2%
O=S1(=O)N=C(N(CCO)/N=C/c2ccccc2)c2ccccc21	-8.3%	i
COc1ccc(CNC(=O)c2cccc(C)c2[N+](=O)[O-])cc1	-13.2%	-0.8%
CC1CCCCN1CCCNC(=O)c1cc(Sc2cccc(Cl)c2)nc2ccccc12 (centres undefined)	-25.9%	-2.6%
C[C@H](O)[C@@H]1C(=O)N2CCc3ccc(-c4ccccc4)cc3[C@@H]2C[C@@H]1N(C)C(=O)Nc1cc(Cl)cc(Cl)c1	-20.3%	-13.7%
O=C(COC(=O)Cc1ccccc1F)NCc1ccc(Cl)cc1	-0.2%	-8.8%
Cc1ccc(CNC(=O)c2cccc(OCc3c(C)noc3C)c2)cc1	-20.0%	.
CCN1C(=O)C(C(=O)Nc2ccc(OC)cc2)C2CC1(C)Oc1ccccc12 (centres undefined)	-16.8%	-4.5%
COc1ccc(N2CC(C(=O)N3CCN(c4ccccc4OC)CC3)CC2=O)cc1 (centres undefined)	-6.7%	-11.8%
Cc1ccc(S(=O)(=O)N2CCN(S(=O)(=O)c3ccc4c(c3)OCCCO4)CC2)cc1	-21.1%	9.6%
CC1CCN(c2ccccc2NC(=S)NC(=O)c2cccs2)CC1	-5.8%	1.3%[1.46 µM]
O=C(O)c1ccc2oc(=O)n(Cc3ccccc3)c2c1	0.3%	-7.6%
COc1ccc(NC(=O)c2nn(C)c3c2CSc2ccc(C)cc2-3)cc1OC	-7.5%	-2.9%
CCNS(=O)(=O)c1ccc(OC)c(C)c1	-10.7%	-6.2%
COc1cc2c(c(OC)c1OC)-c1ccc(OC)c(=O)cc1C(NC(C)=O)CC2 (centres undefined)	?	-28.6%
Cc1cc(C)c(NC(=O)c2cc(C)nc3c2c(C)nn3-c2cccc(F)c2)c(C)c1	-7.9%	-10.1%
COc1ccccc1NC(=O)Nc1nc(C(N)CCc2ccccc2)cs1 (centres undefined)	-28.4%	-2.5%

# Whole records, looked up by structure. Order of screens: VACV Venus inh, VACV mCherry inh
# Cc1cc(C)c(NC(=O)c2cc(C)nc3c2c(C)nn3-c2cccc(F)c2)c(C)c1 is listed as -7.9%, -10.1%
# CCN1C(=O)C(C(=O)Nc2ccc(OC)cc2)C2CC1(C)Oc1ccccc12 (centres undefined) is listed as -16.8%, -4.5%
